High-throughput results from PubChem BioAssay.
Mtb MbtI inh = blocks the Mycobacterium tuberculosis siderophore enzyme MbtI | purified MbtI enzyme, fluorescence intensity read-out | inhibition, %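 (about 17 µg/mL by stock and volumes)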 | 100,000 compounds, 0.89% hits | AID 493033;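 active = above 50% in both replicates, above 80% if mildly self-fluorescent; inactive = the rest, strongly fluorescent compounds included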;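 note: 0% = mean of negative and 100% = mean of positive controls; one replicate is shown; some compounds called inactive have numbers as strong as hits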
Target sequence (P9WFX0 whole entry, looked up): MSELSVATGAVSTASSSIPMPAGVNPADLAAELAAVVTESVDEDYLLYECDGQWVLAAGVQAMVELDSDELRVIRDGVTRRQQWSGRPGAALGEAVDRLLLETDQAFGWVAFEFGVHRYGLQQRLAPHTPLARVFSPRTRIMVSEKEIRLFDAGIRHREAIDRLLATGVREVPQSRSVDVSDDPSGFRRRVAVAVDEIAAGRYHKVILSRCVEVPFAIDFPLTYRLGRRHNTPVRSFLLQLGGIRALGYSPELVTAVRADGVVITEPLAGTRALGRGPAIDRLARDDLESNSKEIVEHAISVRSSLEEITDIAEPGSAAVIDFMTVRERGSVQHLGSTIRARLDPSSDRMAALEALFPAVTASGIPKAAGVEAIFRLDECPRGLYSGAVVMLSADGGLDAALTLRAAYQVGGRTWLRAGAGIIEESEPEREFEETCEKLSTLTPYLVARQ
Polio RdRp inh = poliovirus RNA polymerase inhibition | poliovirus polymerase elongation, fluorescence polarization; hits give low values | P03300 | 150,000 compounds, 0.66% hits | % elongation, % (compound at 16.7 µg/mL); in the data active = % elongation below about 90%; note: some results filed as inactive read as strong as hits
MenB inh = inhibitors of Mycobacterium tuberculosis MenB enzyme; P9WNP5; MenB enzyme assay, absorbance read-out; some hits fall short of the stated cut; inhibition, %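 (about 12 µg/mL by stock and volumes)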; 100,000 compounds, 0.43% hits; AID 540299;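 active = mean of two replicates above 30%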;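 note: 0% = no compound and 100% = wells with inactive enzyme; the first replicate is given; strong numbers were not always called active; inactives centre near -10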
Target sequence (P9WNP5 whole entry, looked up): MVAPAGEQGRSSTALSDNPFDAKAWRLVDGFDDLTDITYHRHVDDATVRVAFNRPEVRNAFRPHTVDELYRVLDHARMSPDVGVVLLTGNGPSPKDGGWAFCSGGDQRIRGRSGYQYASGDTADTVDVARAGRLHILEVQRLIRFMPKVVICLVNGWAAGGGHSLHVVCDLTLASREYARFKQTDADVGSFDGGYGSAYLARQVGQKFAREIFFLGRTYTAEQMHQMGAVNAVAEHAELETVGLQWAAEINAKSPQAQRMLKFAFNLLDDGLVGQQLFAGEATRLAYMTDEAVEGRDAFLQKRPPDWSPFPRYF
Polio RdRp inh intensity = further read-out of Polio RdRp inh, marked with its call; % elongation; measured here: total intensity read-out; formula for this scale not given here;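 total fluorescence in place of polarization; lower means less elongation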
* = called active by the depositor; / = no result given; & = joins results of further samples.

SMILES	Mtb MbtI inh	Polio RdRp inh	Polio RdRp inh intensity	MenB inh
Cc1ccc(Nc2nc(C(=O)N3CCC(C)CC3)cs2)cc1	-6	104	101	-18
COc1ccc(-n2cc(C(=O)Nc3cc(OC)cc(OC)c3)nn2)cc1	20	101	102	21
CCn1c(CCC(=O)Nc2cc(OC)cc(OC)c2)nc2cc(S(=O)(=O)N(C)C)ccc21	3	100	107	-10
COc1ccc(/C=C/C(=O)OCC(=O)NC2CCCC(C)C2C)cc1 (stereo not given)	-1	100	97	/
NNC(=O)Cc1csc2nc(-c3ccccc3)nn12	-6	104	109	1
Cc1[nH]c2ccccc2c1C1=CCNCC1	-20	106	114	-12
CCCn1c(N)c(C(=O)CN(C)Cc2ccccc2)c(=O)[nH]c1=O	8	103	112	0
CC1(C)C2CC=C(/C=N/NC(=O)c3ccc4c(c3)OCO4)C1C2 (stereo not given)	8	102	103	-10
O=C1N=C(N2CCCC2)S/C1=C\c1cn[nH]c1-c1ccccc1	-4	/	/	-9
CCCn1c(SCC(=O)N=c2sc3ccccc3n2C)nc2ccccc21	-6	102	101	-11
Cc1onc(-c2ccccc2)c1C(=O)Nc1ccc(N)cc1	0	102	101	8
CCCC(C)C(=O)NCc1ccccc1OC (stereo not given)	/	108	111	-7
CC1(C)Cc2cccc(OCC(=O)OCC(=O)Nc3ccc4c(c3)OCO4)c2O1	-9	/	/	-27
Cc1cccc(NC(=O)C2=Cc3sc(C)c(C)c3CS2)c1C	19	101	99	-23
O=S(=O)(Nc1ccccc1Br)c1cccs1	-5	101	103	0
O=C(N/N=C/c1cccs1)c1ccccc1	27	101	102	-47
COc1nc(C)nc2sc3c(c12)CCCC3	-8	100	100	/
C/C(=C/C(=O)C1CC1)C1CC1	/	106	108	0
O=C1CC(C(=O)Nc2ccccc2)C2=C(CC(c3ccco3)CC2=O)N1 (stereo not given)	0	101	100	-34
CCN(CC(=O)Nc1ccccc1OC)C(=O)c1ccco1	-12	106	109	-25
Cc1ccc(CNC(=O)c2ccccn2)n1C	14	111	128	-22
CS(=O)(=O)c1sc(NC(=O)Nc2ccc(Cl)cc2)c2c1C=CCC2	4	105	113	-6
Cc1ccc(NCC(O)C(O)C(O)CO)cc1C (stereo not given)	-7	104	101	-48
CCOc1ccc(NC(=O)N(CCCN2CCOCC2)Cc2cccnc2)cc1	-4	102	109	8
CCOC(=O)c1ccc2nc(C(F)(F)F)nc(NCCCc3ccccc3)c2c1	-32	99	103	-15

Next section.
SMILES	Mtb MbtI inh	Polio RdRp inh	Polio RdRp inh intensity	MenB inh
CCCN1CCN(CCNS(=O)(=O)c2ccc(-c3cc(C(F)(F)F)no3)s2)CC1	-20	103	102	-32
CC1=C(C)C(=O)N(CCC(=O)O)C1=O	-20	100	101	-45
CC(C)NC(=S)N1CCC(Cc2ccccc2)CC1	/	104	104	-10
O=C(Nc1ccccc1SCC(O)CSc1cccs1)c1ccc(Cl)cc1 (stereo not given)	-2	102	109	-18
Cc1ccc(-c2ccc(SCC#N)nn2)c(C)c1	11	102	105	-4
COc1ccc(/C=C/C(=O)ONC2=NCCCCC2)cc1OC	14	100	102	8
CC1CC(C)CN(C(=O)CNC(=O)c2ccc(F)cc2)C1 (stereo not given)	-3	101	98	-10
Nc1nc(SC23CC4CC(CC(C4)C2)C3)ns1	-4	102	105	-76
O=C(/C=C/c1c(Cl)nc2sccn12)NCc1ccc2c(c1)OCO2	3	/	/	1
Nc1nonc1-c1nc2ccccc2n1Cc1ccc(F)cc1Cl	/	124	136	-23
CCN1CCN(C(=O)N(CC)CC)CC1	-14	104	101	-7
O=C(COc1ccc(S(=O)(=O)N2CCCc3ccccc32)cc1)NCC1CCCO1 (stereo not given)	-10	97	101	-4
O=C(Nc1ccc(Br)c(C(F)(F)F)c1)c1ccc(CN2C(=O)c3ccccc3C2=O)o1	-14	107	113	6
O=S(=O)(c1cc(Cl)ccc1Cl)n1ccc(-c2ccc(Br)s2)n1	-8	102	105	-16
Cc1cccc(NC(=O)NC(=O)c2ccc(C(C)(C)C)s2)n1	-10	103	109	-16
COc1ccccc1N(C)S(=O)(=O)c1ccc(C(=O)OCC(=O)N2CCC2)cc1	-6	104	103	1
O=C(NCc1ccco1)c1ccc2c(c1)S(=O)(=O)N=C1CCCCCN12	-12	103	111	0
O=c1ccc2cc3c4c(oc3cc2o1)CCCC4	-5	102	102	2
CN(C)c1ncnc2sc3c(c12)CCCC3	23	105	99	5
CN(C)c1ccc(-c2nc3ccccn3c2NC2CCCC2)cc1	-3	100	100	0
O=c1c2ccccc2nc2ccccn12	108	101	100	-2
COc1ccc(CO[C@@H]2O[C@H](CO)[C@@H](O)[C@H](O)[C@H]2NC(C)=O)cc1OC	-3	101	104	10
O=C1/C(=C\c2cccnc2)CN(Cc2ccccc2)C/C1=C\c1cccnc1	30	101	101	-18
CC(=O)OC1(c2ccccc2)CC(C)CN(C)C1 (stereo not given)	/	107	114	-9
Cn1nnnc1SCC(=O)NCCc1ccc(Cl)cc1	-4	101	105	-21

Complete entries, looked up by structure. Order of values: Mtb MbtI inh	Polio RdRp inh	Polio RdRp inh intensity	MenB inh
Listed for `Cc1ccc(-c2ccc(SCC#N)nn2)c(C)c1` → 11	102	105	-4
Listed for `CC1CC(C)CN(C(=O)CNC(=O)c2ccc(F)cc2)C1` (stereo not given) → -3	101	98	-10
Listed for `O=C1/C(=C\c2cccnc2)CN(Cc2ccccc2)C/C1=C\c1cccnc1` → 30	101	101	-18
Listed for `O=C(Nc1ccc(Br)c(C(F)(F)F)c1)c1ccc(CN2C(=O)c3ccccc3C2=O)o1` → -14	107	113	6
Listed for `CCN1CCN(C(=O)N(CC)CC)CC1` → -14	104	101	-7

(more compounds)
SMILES	Mtb MbtI inh	Polio RdRp inh	Polio RdRp inh intensity	MenB inh
CCC(=O)c1cc(N)ccc1O	/	101	102	-46
NS(=O)(=O)Cc1ccccc1	-3	106	107	-3
c1ccc2c(c1)[nH]c1c(N3CCOCC3)ncnc12	-288	105	102	2
O=C(O)Cn1cc(C=C2C(=O)NC(=S)NC2=O)c2ccccc21	100*	102	104	-55
Cc1ccccc1OCCn1c(SCc2nc3ccccc3[nH]2)nc2ccccc21	3	102	105	-35
O=C(NCCc1c[nH]c2ccccc12)c1cc(Cl)cc(Cl)c1	-13	104	107	/
CC(=O)n1c2ccccc2c2c(-c3ccc(C)cc3)c(N3CCOCC3)sc21	-2	101	103	-26
CC(SCc1nc2ccccc2[nH]1)c1ccccc1 (stereo not given)	-7	103	101	-12
CC1=CC(C)(C)N(C(=O)CNC2CCCCC2)c2cc(C)ccc21	-2	102	102	-10
COc1ccc(-n2c(C)cc(/C=C3/C(=N)N4C(=NC3=O)SN=C4S(C)(=O)=O)c2C)cc1Cl	-9	103	106	0
O=C(NCc1ccc(S(=O)(=O)N2C=CC(C(F)(F)F)=NCC2)s1)c1ccccc1	3	104	98	5
CCCCS(=O)Cc1ccccc1 (stereo not given)	3	107	101	-20
Cc1ccc(-c2nn(C)c(=O)c3ccccc23)cc1CNC(=O)CN1CCOCC1	-9	102	102	-24
CCCN1C(=O)/C(=N\OCC(=O)NC23CC4CC(CC(C4)C2)C3)c2ccccc21	-11	103	101	-26
CN(C)S(=O)(=O)c1ccc(S(=O)(=O)N(C)CC2COc3ccccc3O2)cc1 (stereo not given)	-20	99	100	24
COc1ccc(CCNC(=O)c2ccc3c(=O)n(CCC4=CCCCC4)c(=S)[nH]c3c2)cc1OC	-10	103	106	2
CN(CCO)c1ncnc2sccc12	6	112	115	-3
CN(C)c1nc(C=C(C#N)C#N)c(Cl)n1-c1ccc(F)cc1	-22	/	/	-1
COc1ccc(NC(=O)c2ccco2)cc1NC(=O)c1cccc(F)c1	-6	101	102	30
CC(C)(C)N1CC(C(=O)Nc2ccc(S(=O)(=O)N3CCCCC3)cc2)CC1=O (stereo not given)	-4	101	102	9
O=C(c1ccccc1)N1CCCCC(Sc2nnc3ccccn23)C1=O (stereo not given)	-88	102	99	-15
CCSc1nc(=O)[nH]c2c1CCCC2	0	103	105	-16
COc1ccccc1Nc1cnnc2c(Cl)cccc12	18	120	111	-46
Cc1ccc(S(=O)(=O)CC(=O)Nc2ccc(-c3nc4ccc(C)cc4s3)cc2)cc1	199	100	102	-3
O=C(O)CC(NCc1ccccc1)c1ccccc1 (stereo not given)	12	104	100	-17

(further entries)
SMILES	Mtb MbtI inh	Polio RdRp inh	Polio RdRp inh intensity	MenB inh
CC(=O)N1N=C(c2cccs2)CC1c1c(C)coc1C (stereo not given)	7	105	102	-10
Cc1nnc(SCCC(=O)Nc2cccc(-c3nc4ccccc4s3)c2)s1	92	103	107	-12
CN(C)c1ccc(CN)cc1	-38	100	103	-84
CC(Oc1ccccc1)C(=O)OCC(=O)N1CCC(c2ccccc2)=N1 (stereo not given)	13	102	107	-25
O=S(=O)(c1ccc(C2=NNC(=NC3CC3)SC2)cc1)N1CCCCC1	-18	107	108	-28
CCOC(=O)c1cc2c(ccn2C)n1CC(=O)N1C(C)CCCC1C (stereo not given)	12	102	101	8
COc1ccc(/C=C2\SC(=S)N(CC(=O)NCCO)C2=O)cc1	-22	101	102	-74
O=C(O)c1ccc2c(c1)C(=O)N(c1nc3nc4c(c(=O)n3[nH]1)CCC4)C2=O	-14	106	99	-14
O=c1c2sc3nc(N4CCOCC4)c4c(c3c2ncn1-c1ccccn1)CCCC4	-4	103	98	-26
Cc1nnc(N(C)C)c2c1nnn2Cc1ccccc1Cl	15	104	97	17
CCOc1ncccc1C(=O)Nc1ccc(S(=O)(=O)N2CCOCC2)cc1	-5	103	101	-17
CCOC(=O)C1=C(CN2CC(C)CC(C)C2)NC(=O)NC1c1ccc(C)cc1 (stereo not given)	-7	101	105	-10
CCOC(=O)C1CCCN(Cc2nc(N)nc(Nc3ccccc3)n2)C1 (stereo not given)	8	103	104	8
CNC(=S)Nc1ccc(C)cc1	/	107	112	-13
COc1cccc(CNC(=O)c2[nH]nc3c2COc2ccccc2-3)c1	26	101	101	-9
N#Cc1ccc(C(=O)N2CCN(c3cccc(C(F)(F)F)c3)CC2)cc1	-3	103	107	-7
CCN(CC)c1nc2ccccc2n(CC(=O)Nc2ccc(F)cc2F)c1=O	32	104	106	13
CS(=O)(=O)c1ccc(C(=O)N2CCc3ccccc3C2)cc1	-7	101	100	-20
COCc1cc(C)nc(SCC(=O)N2CCOCC2)c1C#N	45	99	111	-13
Cn1c(CNC(=O)c2cccs2)nnc1SCc1ccccc1	-2	105	107	-20
O=C(NCc1cccs1)c1ccc(Cl)cc1	3	104	103	2
COc1ccccc1-c1ncnn1C1=C(C#N)C2CCCCCC2S1 (stereo not given)	-4	99	102	-8
CCN(CC)c1ccc(C=C2C(=O)c3ccccc3C2=O)c(O)c1	-8	83	191	4
CCOc1ccc(-n2c(SCC(=O)NC3CCCC3)nnc2-c2ccoc2C)cc1	-4	100	101	36*
O=C1CC(c2ccccc2)CC(O)=C1C=NCc1ccco1 (stereo not given)	11	103	97	16

Seven entries already listed, arranged by molecular weight, smallest number first:
SMILES	Mtb MbtI inh	Polio RdRp inh	Polio RdRp inh intensity	MenB inh
CN(C)c1ccc(CN)cc1	-38	100	103	-84
CNC(=S)Nc1ccc(C)cc1	/	107	112	-13
CC(=O)N1N=C(c2cccs2)CC1c1c(C)coc1C (stereo not given)	7	105	102	-10
COc1ccc(/C=C2\SC(=S)N(CC(=O)NCCO)C2=O)cc1	-22	101	102	-74
CCOC(=O)C1CCCN(Cc2nc(N)nc(Nc3ccccc3)n2)C1 (stereo not given)	8	103	104	8
N#Cc1ccc(C(=O)N2CCN(c3cccc(C(F)(F)F)c3)CC2)cc1	-3	103	107	-7
O=S(=O)(c1ccc(C2=NNC(=NC3CC3)SC2)cc1)N1CCCCC1	-18	107	108	-28

Additional entries follow.
SMILES	Mtb MbtI inh	Polio RdRp inh	Polio RdRp inh intensity	MenB inh
CN=c1scc(-c2ccc(C)c(C)c2)n1/N=C/c1ccc[nH]1	21	114	116	-51
COCCN(Cc1ccco1)C(=O)Cn1nc(Cc2cccnc2)c2ccccc2c1=O	-1	100	104	9
CS(=O)(=O)Nc1ccccc1Cc1ccccc1	-14	106	102	-31
O=C(Cn1ncc2ccccc21)NCc1cccnc1	11	106	98	10
NNC(=O)CCCOc1ccc(Cl)cc1Cl	-2	98	103	-19
Cn1c(CC(O)c2cccc3ccccc23)nc2ccccc21 (stereo not given)	/	101	98	-13
O=C(Nc1nccs1)c1oc2ccccc2c1CSc1ncn[nH]1	-1	99	92	-38
CN1C2CCC1CC(OC1c3ccccc3CCc3ccccc31)C2 (stereo not given)	-7	100	102	2
C=CC[N+](C)(C)CCN1C(=O)C2C(c3ccccc3)C=CC(c3ccccc3)C2C1=O (stereo not given)	8	102	99	-4
Nc1ccc(C(=O)NCC(=O)O)cc1	-7&-11	99&100	102&104	-2&9
O=C1ON(c2ccccc2)C(c2ccccc2)N1c1ccc(Cl)cc1 (stereo not given)	-7	99	102	8
COc1ccc(CC2C(=O)OC(C)(C)OC2=O)c(Cl)c1OC	-10	99	107	5
CCC(=O)NCCc1nc2cc(NC(=O)Nc3ccccc3)ccc2n1C	5	102	104	-6
O=C(COC(=O)[C@@H]1CCCN1S(=O)(=O)c1ccccc1F)c1ccccc1	-18	101	102	-36
CC1(C)C2CCC1(CS(=O)(=O)NCCCN1CCCC1=O)C(=O)C2 (stereo not given)	11	103	106	-27
O=C(NC1(O)C(=O)c2ccccc2C1=O)c1ccccn1	-8	54*	55*	-10
Cc1ccccc1-c1nnc(-c2ccccc2)o1	23	103	102	18
COc1ccc2c(c1)CCC/C2=N\N	/	103	109	10
Cc1ccccc1N1OC2C(=O)N(c3sc4c(c3C#N)CCCC4)C(=O)C2C1c1cccs1 (stereo not given)	16	102	102	1
